# Screening data from PubChem BioAssay.
# NOMO-1 viab: STK33 inhibitor candidate reducing NOMO-1 cell viability; NOMO-1 AML viability, CellTiter-Glo luminescence, 72 h; actives 7.5% (n = 37,000); inhibition, % (concentration not given with the values); AID 2330;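 active means most replicates above 80%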;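 further: wells of about 30 µL received 25 nL stock; 0% = median of vehicle wells and 100% = reference inhibitor level; the first replicate is given; inactives centre near 10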
# An asterisk follows results filed as active; & = joins results of further samples.
SMILES,NOMO-1 viab
N#CC(O[C@@H]1O[C@H](CO[C@@H]2O[C@H](CO)[C@@H](O)[C@H](O)[C@H]2O)[C@@H](O)[C@H](O)[C@H]1O)c1ccccc1 (some centres undefined),35
COc1ccc(C(=O)O[C@H]2CC[C@@]3(C)[C@@H]4CC[C@H]5[C@]6(O)C[C@H](O)[C@@]7(O)[C@@H](CN8C[C@@H](C)CC[C@H]8[C@@]7(C)O)[C@]6(O)C[C@@]53O[C@]24O)cc1OC,-7
C[C@@H]1CCOC(=O)C=CC=CC(=O)O[C@@H]2C[C@H]3O[C@@H]4C=C(CO)CC[C@]4(COC(=O)[C@H]1O)[C@]2(C)[C@]31CO1,-2
Cc1c(C(=O)c2cccc3ccccc23)c2cccc3c2n1[C@H](CN1CCOCC1)CO3,11
CC(O)CNCCNc1ccc([N+](=O)[O-])c2cccnc12 (centres undefined),13
C[C@]12CCC(=O)C=C1CC[C@@H]1[C@@H]2C(=O)C[C@]2(C)C(=O)CC[C@@H]12,17
CC1(C)CC(=O)C2=C(C1)OC(N)=C(C(=O)OC(C)(C)C)C21C(=O)Nc2ccccc21 (centres undefined),15
Fc1ccc(C(OCCN2CCN(CCCc3ccccc3)CC2)c2ccc(F)cc2)cc1,103*
O=c1cccc2n1CC1CNCC2C1 (centres undefined),-17
COc1ccc([C@H]2Oc3c(I)c(OC)cc(OC)c3C[C@@H]2O)cc1OC,22
Cn1cc(C(=O)C(=O)N[C@H]2CN3CCC2CC3)c2ccccc21,-7
CC1(C)C(C(=O)Nc2ccccc2C(F)(F)F)C1(C)C,8
C[C@@H](CO)NC(=O)C1C=C2c3cccc4[nH]cc(c34)C[C@H]2N(C)C1 (some centres undefined),10
O=C(CNC(=O)c1cccc(Cl)c1)Nc1ccc(Br)cc1C(=O)c1ccccc1,8
CN1C(CC(O)c2ccccc2)CCCC1CC(O)c1ccccc1 (centres undefined),10
C/C1=C/C(=O)O[C@@H]2C[C@@H](CC[C@H](C)/C=C\CC1)O[C@@](O)([C@@H]1CSC(=O)N1)C2,114*
COC1=C[C@@H]2C3=C([C@@H]2C1=O)[C@@H](NC(C)=O)CCc1cc(OC)c(OC)c(OC)c13,10
CC1=CC2OC3[C@H](O)C[C@](C)([C@@]2(CO)CC1=O)[C@]31CO1 (some centres undefined),119*
CO[C@H]1[C@@H](O)[C@@H](C)O[C@@H](O[C@@H]2C=C3C(OC(C)=O)CC4(O)C(CC[C@]5(C)[C@@H](C6=CC(=O)OC6)CC[C@]45O)[C@@]3(C)CC2)[C@@H]1O (some centres undefined),122*
COc1cc2occc2c2oc(=O)ccc12,-9

# Shown bar-delimited: entries from further up
canonical_smiles | NOMO-1 viab
COc1ccc(C(=O)O[C@H]2CC[C@@]3(C)[C@@H]4CC[C@H]5[C@]6(O)C[C@H](O)[C@@]7(O)[C@@H](CN8C[C@@H](C)CC[C@H]8[C@@]7(C)O)[C@]6(O)C[C@@]53O[C@]24O)cc1OC | -7
C[C@@H]1CCOC(=O)C=CC=CC(=O)O[C@@H]2C[C@H]3O[C@@H]4C=C(CO)CC[C@]4(COC(=O)[C@H]1O)[C@]2(C)[C@]31CO1 | -2
Cc1c(C(=O)c2cccc3ccccc23)c2cccc3c2n1[C@H](CN1CCOCC1)CO3 | 11
CC(O)CNCCNc1ccc([N+](=O)[O-])c2cccnc12 (centres undefined) | 13

# (cont.)
SMILES,NOMO-1 viab
N#CC(CCN1CCN(c2ccccc2)CC1)(c1ccccc1)c1ccccc1,55
O=C(Cn1cc(C(=O)c2ccccc2)c2ccccc21)NCC1CCCO1 (centres undefined),23
CCOc1ccc(CN(CCc2ccc3c(c2)OCO3)Cc2ccccc2)cc1,41
NNCc1cccc(O)c1,11
C=C(CO)C(=O)O[C@H]1CC(=C)[C@@H]2C[C@H](O)C(=C)[C@@H]2[C@H]2OC(=O)C(=C)[C@@H]21,121*
Cc1cccc(NC(=O)Cn2cc(C(=O)c3ccccc3)c3ccccc32)c1C,42
Oc1ccc2c3c1OC1[C@@H](O)CC[C@@]4(O)[C@@H](C2)N(CC2CCC2)CC[C@]314 (some centres undefined),3
CO[C@H]1[C@H](O)[C@H](O[C@H]2CC[C@]3(C)C4CC[C@]5(C)C(C6=CC(=O)OC6)CC[C@]5(O)C4CC[C@@H]3C2)O[C@@H](C)[C@@H]1O (some centres undefined),110*
CC1(C)C(C(=O)Nc2nccs2)C1(C)C,11
COc1cc2ccc(=O)oc2c2ccoc12,-13
CN(Cc1ccccc1)C(=O)CN1CCCC1=O,10
CCCCCCCCCCCCCC(=O)O[C@@H]1[C@@H](C)[C@@]2(O)[C@@H](C=C(CO)C[C@]3(O)C(=O)C(C)=C[C@@H]23)[C@@H]2C(C)(C)[C@]12OC(C)=O,98*
COc1ccc(OC)c(NC(=S)NCCc2cnc[nH]2)c1,38
Cc1c(O)c(C(=O)O)c(O)c2c1[C@H](C)[C@@H](C)OC2=O,-9
CC(=O)OC[C@]12CCC(C)=C[C@H]1O[C@@H]1[C@H](O)[C@@H](OC(C)=O)[C@@]2(C)[C@]12CO2,109*
O=c1cccc2n1C[C@H]1CNCC2C1,6
CN(C)C(=O)Oc1cc(OC(=O)N(C)C)cc(C(O)CNC(C)(C)C)c1 (centres undefined),12
CC1=C2C[C@H]3[C@@H](CC=C4C[C@@H](O)CC[C@@]43C)[C@@H]2CC[C@]12O[C@@H]1C[C@H](C)CN[C@H]1[C@H]2C,55
O=C(CCCN1CCC2(CC1)C(=O)N(Cc1cccc(F)c1)CN2c1ccccc1)c1ccc(F)cc1,91*
CN1CCC2=C[C@H](O)[C@H]3OC(=O)c4cc5c(cc4[C@H]3[C@@H]21)OCO5,26

# Molecules above containing fluorine:
SMILES,NOMO-1 viab
Fc1ccc(C(OCCN2CCN(CCCc3ccccc3)CC2)c2ccc(F)cc2)cc1,103*
CC1(C)C(C(=O)Nc2ccccc2C(F)(F)F)C1(C)C,8
O=C(CCCN1CCC2(CC1)C(=O)N(Cc1cccc(F)c1)CN2c1ccccc1)c1ccc(F)cc1,91*

# (further entries)
SMILES,NOMO-1 viab
CCCCN1CCC(C#N)(Nc2ccccc2)CC1,-1
COc1ccc2c3c([nH]c2c1)C(C)=NCC3,8&-7
CC(C)=CC1C(C(=O)OCc2cccc(Oc3ccccc3)c2)C1(C)C (centres undefined),5
CN1C[C@@H](NS(=O)(=O)N(C)C)C[C@@H]2c3cccc4c3c(cn4C)C[C@H]21,1
C=C(C)C1Cc2c(ccc3c(=O)c4c(oc23)COc2cc(OC)c(OC)cc2-4)O1 (centres undefined),-9
CC(C)(C)C(=O)c1cn(CC(=O)NCc2ccco2)c2ccccc12,10
COc1cc(O)c(C(=O)O)c(-c2cc(O)c(O)cc2C)c1,37
COc1cc([C@@H]2c3cc4c(cc3[C@@H](O)C3COC(=O)C32)OCO4)cc(OC)c1O (some centres undefined),102*
CC[C@H]1CN2CCC1C[C@H]2[C@H](O)c1ccnc2ccc(OC)cc12 (some centres undefined),1
C=C(C)c1cc2cc(C(C)=O)c(O)cc2o1,66
O=C(O)c1nn(Cc2ccc(Cl)c(Cl)c2)c2ccccc12,2
N#C/C(=C\c1ccc(O)cc1)C(=O)O,5
C[C@@H]1O[C@@H](O[C@H]2[C@H](O)[C@@H](O)[C@H](O[C@@H]3C=C4CC[C@@H]5C(CC[C@]6(C)[C@@H](c7ccc(=O)oc7)CC[C@]56O)[C@@]4(C)CC3)O[C@@H]2CO)[C@H](O)[C@H](O)[C@H]1O (some centres undefined),124*
O=[N+]([O-])c1ccccc1CNCCc1c[nH]c2ccccc12,26
CCCN1CCc2cccc3c2[C@H]1Cc1ccc(O)c(O)c1-3,113*
COc1cc2c(c(OC)c1OC)-c1cc3c(cc1[C@H](OC(C)=O)[C@H]1COC(=O)[C@@H]1C2)OCO3,107*
C[C@H]1OC(O[C@H]2[C@@H](O)CC(O[C@H]3[C@@H](O)C[C@H](O[C@H]4CC[C@]5(C)C6CC[C@]7(C)[C@@H](C8=CC(=O)OC8)[C@@H](O)C[C@]7(O)[C@@H]6CC[C@@H]5C4)O[C@@H]3C)O[C@@H]2C)C[C@H](O)C1O (some centres undefined),107*
CCCCC/C=C\C/C=C\C/C=C\C/C=C\CCCC(=O)NCc1ccc(O)c(OC)c1,117*
C=C1C(O)(c2ccccc2)C2CC[N+]1(C)CC2 (centres undefined),15
C[C@]12C=CC(=O)C=C1CCC1C2CC[C@]2(C)C(=O)CCC12 (some centres undefined),-17

# The last three entries of the part before open the next one.
SMILES,NOMO-1 viab
CCCCC/C=C\C/C=C\C/C=C\C/C=C\CCCC(=O)NCc1ccc(O)c(OC)c1,117*
C=C1C(O)(c2ccccc2)C2CC[N+]1(C)CC2 (centres undefined),15
C[C@]12C=CC(=O)C=C1CCC1C2CC[C@]2(C)C(=O)CCC12 (some centres undefined),-17
COc1cc2c(cc1O)CCNC2C (centres undefined),-1
CCC1(C)CC(=O)NC(=O)C1,14
CC(=O)OCC(=O)[C@H]1CC[C@H]2[C@@H]3CC[C@H]4C[C@H](O)CC[C@]4(C)[C@H]3C(=O)C[C@]12C,23
COC1=CC(=O)O[C@@H](CCc2ccccc2)C1,12
CCC[C@H]1C[C@H]2OC(=O)c3c(cc(OC)c(OC)c3O)[C@H]2O1,14
CN1CCN(c2ccc3ccccc3n2)CC1,11
N#CC(O[C@@H]1O[C@H](CO)[C@@H](O)[C@H](O)[C@H]1O)c1ccccc1 (some centres undefined),-15
COc1ccc(-c2cc(=O)c3c(OC)c(OC)c(OC)cc3o2)cc1,4
C[C@@H]1O[C@@H](O[C@@H]2C=C3CC[C@@H]4C(CC[C@]5(C)[C@@H](c6ccc(=O)oc6)CC[C@]45O)[C@@]3(C)CC2)[C@H](O)[C@H](O)[C@H]1O (some centres undefined),108*
CC(C)[C@H]1C(=O)O[C@H](C(C)C)C(=O)N(C)[C@@H](C(C)C)C(=O)O[C@H](C(C)C)C(=O)N(C)[C@@H](C(C)C)C(=O)O[C@H](C(C)C)C(=O)N1C,119*
C/C=C(/C)C(=O)O[C@H]1C(C)=C2[C@H]([C@@H]1OC(=O)CCCCC)[C@@](C)(OC(C)=O)C[C@H](OC(=O)CCC)[C@@]1(O)[C@H]2OC(=O)[C@@]1(C)O,99*
COc1ccc(CC2(CCc3ccncc3)C(=O)NC(=O)N(c3cccc(C)c3)C2=O)c(OC)c1 (centres undefined),17
C/C=C\C(C)=C\[C@H](C)C(=O)C[C@H](O)CC1CC(=O)NC(=O)C1,77
CCC1C2CC[N+]3([O-])CCC4(C(=C2C(=O)OC)Nc2c(OC)cccc24)C13 (centres undefined),18
O=C(Cn1cc(C(=O)c2ccccc2)c2ccccc21)Nc1ccc(F)cc1,49
O=C1c2ccccc2C(=O)N1Cc1nc2ccccc2c(=O)n1-c1ccc(Br)cn1,6
c1ccc(CSc2nnc(-c3ccccc3)o2)cc1,39
COC[C@H]([C@@H](O)[C@@H](O)C(=O)NCC[C@@H](C)c1nc(/C=C/C[C@H]2OC3(C[C@H](O)[C@H]2C)OC([C@@H](C[C@@H](O)[C@@H](C)[C@@H](O)[C@@H](C)/C=C(C)/C(C)=C/C=C/C(C)=C\C#N)OC)[C@@H](OP(=O)(O)O)C3(C)C)co1)N(C)C (some centres undefined),139*
CC1(C)C2CC(=O)[C@]3(C)C(CC[C@@]4(C)[C@H](c5ccoc5)OC(=O)[C@H]5O[C@]543)[C@@]2(C)C(=O)C[C@H]1O (some centres undefined),17

# An excerpt; rates above refer to the full screens.
